From PubChem
VDR inhibitor: blocks the human vitamin D receptor; P11473; hit rate 0.93% among 400,000; AID 504847; VDR-SRC2-3 peptide fluorescence polarization, 2 h; Potency, µM, for the others: max response, negative = inhibition, hits mostly inhibitors; active means well fitted inhibition curve with a large enough effect; inconclusive means small, poorly fitted or top-dose-only effect, or another doubt; inactive means no such curve, though single readings can be large or run the other way; further: series mostly up to about 120 µM
Target sequence (P11473 whole entry, looked up): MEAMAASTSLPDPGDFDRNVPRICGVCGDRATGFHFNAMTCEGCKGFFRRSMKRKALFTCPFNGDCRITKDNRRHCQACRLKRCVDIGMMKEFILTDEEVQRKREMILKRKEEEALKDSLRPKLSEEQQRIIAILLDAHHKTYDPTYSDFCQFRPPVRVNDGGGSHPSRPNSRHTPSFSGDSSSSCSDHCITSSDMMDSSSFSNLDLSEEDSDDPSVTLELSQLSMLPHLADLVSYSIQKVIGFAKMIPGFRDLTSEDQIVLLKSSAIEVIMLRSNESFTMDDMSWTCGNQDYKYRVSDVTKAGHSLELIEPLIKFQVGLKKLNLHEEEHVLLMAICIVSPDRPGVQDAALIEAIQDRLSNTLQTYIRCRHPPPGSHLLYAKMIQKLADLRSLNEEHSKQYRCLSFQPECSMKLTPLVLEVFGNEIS
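Signal is fluorescence polarization, reporting how far test compounds block the interaction of VDR with the SRC2-3 coregulator peptide after a 2 h room-temperature incubation.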
The depositor's hits bear a star; ? = inconclusive; & = joins results of further samples; [ ] = remark or other dose. On the % scale 0 is the no-effect control and ±100 the full control effect; potency means the concentration at half of the fitted maximal effect. Some of the compounds tested; rates above refer to the full screens.

SMILES | VDR inhibitor
COc1ccc(S(=O)(=O)N[C@@H](CSCc2ccccc2)C(=O)O)cc1 | 10%
CCCCN(C(=O)c1cc(Cl)nc2ccccc12)c1c(N)n(CCCC)c(=O)[nH]c1=O | 24%
COc1ccccc1N1CCN(C(=O)c2cc3c(=O)oc4ccc(C)cc4c3s2)CC1 | 3%
COc1cc(C(=O)NNC(=O)c2ccc(F)cc2)ccc1OCC(=O)N1CCOCC1 | -2%
CSc1nc2ccc(NC(=O)c3ccc(Cl)s3)cc2s1 | -7%
CCOC(=O)c1c(C)[nH]c(C)c1S(=O)(=O)NCc1ccccc1C | -7%
COc1ccc(CCn2c(-c3ccc(F)cc3)nc3c(c(=O)c4ccccc4n3C)c2=O)cc1OC | 15%
Cc1cc(OC(C)C(=O)NCc2ccncc2)c2c(C)cc(=O)oc2c1 (stereo not drawn) | -2%
CN1CCN(C(=O)C2=C[C@@H](c3ccccc3)C[C@@H](OCc3ccc(CO)cc3)O2)CC1 | -14%
Cc1cc(OCc2nn[nH]n2)c2c(C)c(CC(=O)O)c(=O)oc2c1 | 2%
O=C(NCc1ccc(F)cc1)c1cnn2ccccc12 | -23%
Cn1c(SCC(=O)Nc2ccc3c(c2)OCCO3)nnc1-c1ccncc1 | -9%
O=C(NCC(c1ccco1)N1CCc2ccccc21)c1ccccc1F (stereo not drawn) | -11%
COc1ccc(OCC(=O)Nc2ccc(S(=O)(=O)N3CCCCC3)cc2)cc1 | 25%
CC(=O)Nc1ccc(NCN2C(=O)C3C4CCC(C4)C3C2=O)cc1 (stereo not drawn) | -1%
Cc1cc(Oc2ccc(-c3nnc(-c4ccccc4)o3)cc2[N+](=O)[O-])ccc1Cl | -10%
COC(=O)/C(=C\C=C\c1ccccc1)NC(=O)c1ccccc1 | -21%
COc1ccc(CNC(=O)Cn2cc3c(n2)CCCCC3)cc1 | -16%
C[C@@H]1CCC2[C@](C)(CO)[C@@H](O)CC[C@]2(C)[C@@]12CCC(CO)(CCO)O2 (stereo partly drawn) | 2%
Cc1nc(NC(=O)CN2CCN(c3ccccc3F)CC2)sc1C(=O)N(C)C | -23%
Cc1cc2n(c(=O)c1C#N)CCCN2c1cccc(Cl)c1 | 14%
Cc1cc(C)c2oc(C(=O)N(Cc3ccccc3)c3ccccn3)cc(=O)c2c1 | -10%
Cc1ccnc(NC(=O)c2ccc(N3C(=O)CCC3=O)cc2)c1 | -6%
CCc1nn(CC(=O)Nc2c(C)cccc2C)c(=O)c2cc3sccc3n12 | 5%
COc1cccc(CNC(=O)CSc2ncc(S(=O)(=O)c3ccc(Br)cc3)c(=O)[nH]2)c1 | -5%
Cc1ccc2cc(CCNC(=O)c3ccc4c(c3)OCO4)c(=O)[nH]c2c1 | -18%
CCOC(=O)c1ccc(-n2ccnc2)c(NC(=O)c2ccc(Cl)cc2)c1 | -11%
O=C(NCCN1CCOCC1)C(=O)NCC1OCCCN1S(=O)(=O)c1cc(F)ccc1F (stereo not drawn) | 8%
Cc1cc(=O)n(CCc2ccccc2)c(O)c1C#N | 16%
COc1ccc(Cc2nnc(Nc3ccc(Cl)cc3)[nH]c2=O)cc1 | -15%
COc1ccc(NC(=O)C(c2ccc(C)cc2)N(C)C(=O)Cc2cccs2)cc1 (stereo not drawn) | -6%&3%
O=C(CNC(=O)C1CCCC1)Nc1ccccc1Br | -12%
CCOC(=O)c1cccc(NC(=S)N2CCN(c3ncc4c(=O)c(C(=O)O)cn(CC)c4n3)CC2)c1 | 17%
CCCSc1nnc(CN2CCOCC2)n1C | -3%
COC(=O)c1ccc(NC(=O)C(=O)N2CCN(C(=S)Nc3cccc(OC)c3)CC2)cc1 | 5%
COc1ccc(OC)c(S(=O)(=O)n2cnc3cc(C)c(C)cc32)c1 | -1%
COc1ccc(C)cc1S(=O)(=O)N(CC(=O)Nc1cccc([N+](=O)[O-])c1)c1cc(C)cc(C)c1 | 10%
CCOC(=O)N1CCN(C(=O)Cn2c(C)cc3ccccc3c2=O)CC1 | -8%
CCCOc1ccc(CN2C(=O)C(=O)c3cccc(C)c32)cc1 | ?
CCCOC(=O)c1ccc(NC(=O)c2ccccc2OC)cc1 | -9%
COc1ccc(C)cc1S(=O)(=O)N(CC(=O)N1CCCC1)c1ccc(C)cc1 | 5%
CCCCCCCCS(=O)c1sc2nc(C)cc(C)c2c1N (stereo not drawn) | -6%
CC1(C)CC(NS(=O)(=O)c2cccc3ccccc23)CC(C)(C)N1 | -12%
NC(=O)c1cccnc1Oc1ccc(Cl)cc1Cl | 6%
CCc1ccc(NC(=O)CSc2nnc(Cc3cccn3C)n2-c2ccc(F)cc2)cc1 | -15%
C=CCn1c(SCCC)nc(O)cc1=O | -4%
O=C(Cn1ccc2cc(S(=O)(=O)N3CCCCCC3)ccc21)NCCc1ccc(Cl)cc1 | 6%
O=C(C[C@H]1C/C=C\CC[C@@H](Cc2ccc(F)cc2)C(=O)OC[C@H]2CCCN2C1=O)N[C@H](CO)Cc1ccccc1 | -11%
COc1cccc(CNC(=O)Cn2cc3c(n2)-c2c(oc(C(=O)N4CCCC4)c2C)CC3)c1OC | 9%
COc1ccnc(Oc2ccc(C)cc2C)c1C#N | -9%
O=C(OCCN=C1NS(=O)(=O)c2ccccc21)c1cccc([N+](=O)[O-])c1 | -11%
Cc1ccccc1NC(=O)Cn1c(=O)n(CC2CCC(C(=O)NCCc3ccccc3)CC2)c(=O)c2ccccc21 (stereo not drawn) | 5%
Cc1ccc(NC(=O)c2cccc3c2C(=O)N(C2CCCCC2)C3)cc1 | -7%
Nc1ccc(Nc2ccccc2N)cc1 | -2%
O=C(c1ccccc1-c1nc(-c2ccc(Cl)cc2)no1)N1CCCC1 | 10%
O=C1CC(c2ccc(F)cc2)C(n2cncn2)C(O)=C1C1NCCc2ccccc21 (stereo not drawn) | -12%
O=C1CCCCC1C(Nc1ccc(Br)cc1)c1ccccc1 (stereo not drawn) | -12%
CC1(C)OC(=O)C=C(CC2NS(=O)(=O)OC3CCCCC23)O1 (stereo not drawn) | -14%
CC1(C)Nc2ccccc2C(=O)N1c1ccccc1 | -5%
COc1ccc(-c2cc(C(=O)Nc3cc(OC)c(OC)c(OC)c3)no2)cc1 | -2%

Continued:
SMILES | VDR inhibitor
COc1ccc(OC)c(NC(=O)Cn2c(-c3ccc(Cl)cc3)noc2=O)c1 | 19%
O=P(CCN1CCCCC1)(c1ccccc1)c1ccccc1 | 3%
OC[C@H](S)CS | ?
C/C(=N\NC(=O)C1CC1)c1ccc(C(C)(C)C)cc1 | 9%
Cc1ccnc(Sc2ccc([N+](=O)[O-])cn2)n1 | 14%
COc1ccc(Cc2nnc(NC(=O)c3ccccc3Cl)s2)cc1OC | 3%
CCN(C(=O)CN1C(=O)c2ccc([N+](=O)[O-])cc2C1=O)C1CCCCC1 | 32%[activator]
CC(C)(C)OC(=O)NCc1ccc(NC(=O)c2nc[nH]c2C(=O)NCCNC(=O)c2[nH]cnc2C(=O)Nc2ccc(CNC(=O)OC(C)(C)C)cc2)cc1 | 2%
O=C(Nc1nc(-c2nc3ccccc3s2)cs1)C1COc2ccccc2O1 (stereo not drawn) | -8%
COc1cc(SC)ccc1C(=O)OCC(=O)N1CC(=O)Nc2ccccc21 | -12%
CCn1c(Cc2ccccc2)nnc1SCC(=O)N1CCCCC1 | -5%
C#CCSc1nnc(-c2ccc(OC)cc2)o1 | -8%
Cc1c(C(=O)N2CCCC2)c(S(=O)(=O)NCC(C)c2ccccc2)c(C)n1C (stereo not drawn) | -8%
CCOc1ccc(NC(=O)c2ccc3nc(C(C)C)oc3c2)cc1 | 13%
CCOC(=O)/C(=N/Nc1ccccc1)Sc1nnc(CCc2ccccc2)n1-c1ccccc1 | -9%
C=CCN1C(=O)/C(=C/c2ccc(OC)cc2)S/C1=N/c1nccs1 | -13%
COc1cc2nc(N(CCCN(C)C)C(=O)c3ccc(C(=O)c4ccccc4)cc3)sc2cc1OC | 3%
CC(=O)c1c(C)[nH]c(C(=O)Nc2ccccc2Cl)c1C | 14%
Cc1nc(C(=O)Nc2ccc(F)cc2)nn1-c1ccc([N+](=O)[O-])cc1 | 3%
N#Cc1ccc(Oc2ccc(/C=N/O)cn2)cc1 | 17%
Oc1ccccc1OCc1nc2ccccc2s1 | -1%
Cc1sc2ncn(CC(=O)NCCCC(=O)N3CCC(C)CC3)c(=O)c2c1C | -10%
CCNC(=O)C1=C(O)c2sccc2N(C)S1(=O)=O | 13%
Cc1cc(NC(=S)Nc2cccc3ccccc23)n[nH]1 | -12%

3 entries already listed, ordered by the value under VDR inhibitor, low to high.
mol	VDR inhibitor
CCOc1ccc(NC(=O)c2ccc3nc(C(C)C)oc3c2)cc1	13%
CC(=O)c1c(C)[nH]c(C(=O)Nc2ccccc2Cl)c1C	14%
N#Cc1ccc(Oc2ccc(/C=N/O)cn2)cc1	17%

(next part)
SMILES | VDR inhibitor
CC(C)(Oc1ccc(Cl)cc1)C(=O)OCn1nnc2ccccc2c1=O | -1%
O=S(=O)(c1ccc(Br)cc1)N1CCN(c2nc(-c3ccccc3)nc3ccccc23)CC1 | -6%
Cc1ccc(CNC(=O)C2CCN(S(=O)(=O)c3ccc4c(c3)CCCN4C(=O)C3CCC3)CC2)cc1 | 7%
CC1(C)CC(=O)/C(=C(\O)CCCN2C(=O)c3ccccc3C2=O)C(=NCCO)C1 | -7%
Oc1ccc2cc(Br)ccc2c1CN1CCCC1 | 23%
CCCCN1C(=N)N([C@@H](CCC)CN2CCC[C@H]2CN2C(N)=NC[C@H]2C(C)C)C[C@H]1[C@H](C)CC | -25%
COc1ccc(CCNC(=O)C2(c3ccccc3)CC2)cc1 | -1%
CCCCOc1ccc(C(=O)N/C(=C\c2cccc([N+](=O)[O-])c2)C(=O)OC(C)C)cc1 | -7%
O=C(Nc1ccc(NC(=O)c2ccccc2F)cc1)c1cccs1 | -1%
COc1ccccc1C1=CC(=O)C[C@H](c2ccc(F)cc2)C1 | -13%
Cc1ccccc1NC(=S)N(Cc1ccco1)C(C)c1cccs1 (stereo not drawn) | 15%
COc1ccc(CNC(=O)CC2(CC(=O)O)CCCCC2)cc1 | 8%

Structures above that have a furan ring, fused or not (3):
SMILES | VDR inhibitor
O=C(NCC(c1ccco1)N1CCc2ccccc21)c1ccccc1F (stereo not drawn) | -11%
COc1cccc(CNC(=O)Cn2cc3c(n2)-c2c(oc(C(=O)N4CCCC4)c2C)CC3)c1OC | 9%
Cc1ccccc1NC(=S)N(Cc1ccco1)C(C)c1cccs1 (stereo not drawn) | 15%

Remaining list, next part.
SMILES | VDR inhibitor
CSc1nnc2n(-c3ccc(C)cc3)c(=O)c3c4c(sc3n12)COC(C(C)C)C4 (stereo not drawn) | 9%
COc1ccc(Nc2ncnc3sc(-c4ccccc4)cc23)cc1OC | -7%
Cc1cccc2sc(NNC(=O)c3cc(=O)c4ccccc4o3)nc12 | ?
Cc1cc(NC(=O)CN2C(=O)NC(Cc3ccccc3)C2=O)no1 (stereo not drawn) | 11%
COc1ccc(C(=O)NNS(=O)(=O)c2ccc(C)cc2)cc1 | -7%
CCOc1ccc(NC(=O)CN(C)C(=O)c2cc3c(s2)CCC(C)C3)cc1OCC (stereo not drawn) | 23%
COc1ccc(NC(=O)CC2SC(=NCc3ccccc3OC)NC2=O)cc1 (stereo not drawn) | 16%
COc1ccc(C)cc1NC(=O)CNCc1cccs1 | -6%
FC(F)(F)c1ccc(-c2noc(-c3ccccc3Br)n2)cc1 | 14%
COc1ccc(S(=O)(=O)N(CC(=O)Nc2ccccc2Br)Cc2ccccc2)cc1 | 4%
CCN(CC)c1ccc(C=Nc2ccc(C)cc2C)c(O)c1 | 2%
COc1ccc(S(=O)(=O)NN(C)c2ncc(C(F)(F)F)cc2Cl)cc1 | -28%

Quoted at random: 4 compounds from above
SMILES | VDR inhibitor
CCOC(=O)c1ccc(-n2ccnc2)c(NC(=O)c2ccc(Cl)cc2)c1 | -11%
COc1ccc(CNC(=O)CC2(CC(=O)O)CCCCC2)cc1 | 8%
Cc1ccccc1NC(=O)Cn1c(=O)n(CC2CCC(C(=O)NCCc3ccccc3)CC2)c(=O)c2ccccc21 (stereo not drawn) | 5%
CC1(C)CC(=O)/C(=C(\O)CCCN2C(=O)c3ccccc3C2=O)C(=NCCO)C1 | -7%

Other entries follow:
SMILES | VDR inhibitor
Cc1cccc(Cn2ncc(Cl)c(Cl)c2=O)c1 | -5%
CCN(CC)S(=O)(=O)c1cc(-c2nnc(Nc3ccc(OC)c(C(N)=O)c3)c3ccccc23)ccc1C | -13%
Cc1noc(C)c1COC(=O)c1ccccc1NC(=O)c1ccco1 | 2%
CC(=O)c1c(N2CCCCC2)nc(=S)n(-c2ccccc2)c1C | -10%
O=C(CC12CC3CC(C1)CC(CC(=O)N1CCCC1)(C3)C2)N1CCCC1 | -15%
O=C1C2=C(Nc3ccccc3SC2c2c(F)cccc2Cl)c2ccccc21 (stereo not drawn) | -26%
CC(C)OP(=O)(c1ccc(N(C)C)cc1)C(O)c1ccc(N(C)C)cc1 (stereo not drawn) | 7%
COc1cccc(-c2nc(CS(=O)(=O)CC(=O)NCCc3cc(OC)ccc3OC)c(C)o2)c1 | -14%
O=C(Nc1cccc(F)c1)C1CCCN(S(=O)(=O)c2cccc3cccnc23)C1 (stereo not drawn) | 10%&-27%
Cc1ccc(C)c(NC(=O)CCN2C(=O)c3ccccc3Sc3ncccc32)c1 | 2%
CCN(CC)c1ncnc2c1nnn2C | 6%
Cc1cc(Br)cc2c(C(=O)OCC(=O)c3ccccc3)cc(-c3ccccc3)nc12 | 6%
